# Assay outcomes from PubChem BioAssay.
# Calb FLC = affects C. albicans growth with fluconazole; C. albicans CaCi-2 (fluconazole-resistant clinical isolate) + fluconazole, Alamar Blue growth, 48 h; growth inhibition, % (concentration not given with the values); 300,000 tested, 0.57% active; AID 1979;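 active = most replicates above 75%; inconclusive = exactly half above 75%; inactive = most below 75%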;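 also: all wells also contain fluconazole at 8 µg/ml as a sub-toxic cotreatment; 0% = median of DMSO wells and 100% = median of geldanamycin control wells; wells of about 8 µL received 7.5 nL stock; the first replicate is given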
# HNF4A DNA FP = change in binding of human HNF4 alpha to DNA; P41235; HNF4a-FITC DNA binding, fluorescence polarization, 1 h; activity change, % at 10 µM; 360,000 tested, 0.3% active; in the data active = activity change above about 30%, passing the limit was not always enough;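 also: controls were the assay level and a saturating level of protein; the project sought stronger binding though the title names inhibitors; some compounds called inactive have numbers as strong as hits; positive values seem to mean higher polarization but the record does not say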
# ALR inh = human ALR oxidase inhibition via reduced H2O2. P55789. purified ALR, DTT oxidation, H2O2 HRP-luminol luminescence. inhibition, % (no concentration beside the values). 290,000 tested, 3.8% active. AID 485317;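 active = mean and each replicate at 75% or more; inconclusive = only one of the two met; inactive = neither met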;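 also: stock transfer was 7.5 nL into about 7.5 µL; 0% = neutral wells and 100% = wells with inactivated enzyme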
# Target sequence (P55789 whole entry, looked up): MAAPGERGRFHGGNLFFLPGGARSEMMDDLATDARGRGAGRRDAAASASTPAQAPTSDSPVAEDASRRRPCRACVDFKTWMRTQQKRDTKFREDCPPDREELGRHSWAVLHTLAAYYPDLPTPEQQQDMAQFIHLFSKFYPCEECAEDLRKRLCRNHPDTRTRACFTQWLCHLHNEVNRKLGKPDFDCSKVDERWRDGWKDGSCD
# RanGTP-Imp inh = inhibitors of RanGTP-importin-beta interaction, primary screen, biochemical, FRET, CFP-Ran, YFP-importin-beta, homogeneous. 300,000 tested, 1.1% active. cell-free CFP-Ran/YFP-importin-beta FRET ratio. inhibition, % (test concentration not listed);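 active = most replicates above 15%; inconclusive = exactly half above 15%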;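 also: 0% = DMSO wells and 100% = Ran loaded with GDP instead of GTP; wells of about 40 µL received 100 nL stock; the first replicate is given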
# LANA-H2B inh = blocks KSHV LANA binding to histone H2A/H2B. Q9QR71. cell-free LANA-H2A/H2B peptide, fluorescence polarization. inhibition, % (concentration not given with the values). 320,000 tested, 0.6% active; in the data active = inhibition mostly above about 10%, no sharp cut-off; inactive = mostly below about 6.7%;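 also: stock transfer was 7.5 nL into about 10 µL; 0% = median of vehicle wells and 100% = median of positive control wells; one replicate is shown; the record names a cut of 25% in any replicate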
# B2AR ag = agonists of human beta-2 adrenergic receptor inducing internalization; 340,000 tested, 0.43% active; response, % (test concentration not listed); Am2.2-beta2AR cells, FAP receptor internalization, flow cytometry; reference of the scale not given here;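 active = response above a set limit, near 3 SD of response in nonfluorescent compounds, cut at about 42% in these data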;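 also: stock transfer was 100 nL into about 11 µL; a reference agonist was the positive control; negative values mostly stem from fluorescent compounds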
# Target sequence (P07550 whole entry, looked up): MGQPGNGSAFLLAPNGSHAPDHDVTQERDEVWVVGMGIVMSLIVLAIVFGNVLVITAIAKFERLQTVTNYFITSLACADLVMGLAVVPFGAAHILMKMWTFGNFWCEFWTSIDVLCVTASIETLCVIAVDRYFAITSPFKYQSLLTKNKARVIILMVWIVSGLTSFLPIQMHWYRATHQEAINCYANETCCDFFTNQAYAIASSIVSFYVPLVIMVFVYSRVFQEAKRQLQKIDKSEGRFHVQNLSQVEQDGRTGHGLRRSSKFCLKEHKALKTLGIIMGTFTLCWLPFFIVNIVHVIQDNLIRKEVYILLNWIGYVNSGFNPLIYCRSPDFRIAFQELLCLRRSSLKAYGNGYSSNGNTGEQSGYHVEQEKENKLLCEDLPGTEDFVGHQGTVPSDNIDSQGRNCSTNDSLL
# Vif TR-FRET = inhibitors of Vif binding to APOBEC3G peptide, primary screen, biochemical, TR-FRET, GST-Vif 1-94, biotin-A3G peptide, dose response retest (AID 1117319); TR-FRET GST-Vif / biotin-A3G peptide binding; higher % means a stronger effect; test concentration not given here; strong numbers were not always called active; 260,000 tested, 0.57% active; one-dose inhibition, %; IC50 in µM for titrated hits;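 active = above the screen mean plus three standard deviations and confirmed in dose response; inconclusive = results disagree or hit not tested in dose response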;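 also: Vif residues 1-94 fused to GST binding biotinylated APOBEC3G peptide 110-148; 0% = full assay without inhibitor and 100% = GST in place of GST-Vif; retest series ran down from 100 µM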
# Active calls of the source: *; u = inconclusive; x = no result given; & = joins results of further samples. Compounds were not picked by outcome, and some 6.3% of all compounds hit somewhere here.
SMILES,Calb FLC,HNF4A DNA FP,ALR inh,RanGTP-Imp inh,LANA-H2B inh,B2AR ag,Vif TR-FRET
O=C(Nc1ccc(Cc2ccncc2)cc1)c1ccc([N+](=O)[O-])o1,5,0.3,-53,3.9,4.4,15,x
COc1ccc(N(CC(=O)NC(C)C)C(=O)CCC(=O)Nc2ccccn2)cc1,-4,-4.4,2,1.8,-5.3,0,x
CC1(C)CC(=O)C=C(Nc2cccc(C(F)(F)F)c2)C1,-4,6.7,-3,u,6.6,6,x
CCOC(=O)CNc1nnc(SCC(=O)OCC)[nH]c1=O,9,0.0,100*,u,0.6,0,1%
CCCCN(CC)C(=O)c1ccc(Cl)c(Cl)c1,3,1.2,-2,-0.6,0.9,9,0%
CN(C(=O)COc1ccc([N+](=O)[O-])cc1)C1CCS(=O)(=O)C1 (centres undefined),-5,1.2,-8,10,4.0,0,0%
c1ccc(C(c2ccccc2)c2noc(CN3CCC(c4ccncc4)CC3)n2)cc1,-1,1.8,0,2.4,0.3,3,x
CCN1CCN(CC(=O)Nc2sc3c(c2C#N)CCC3)CC1,-1,0.8,16,-1.3,-2.7,-15,22%
C[C@H](CO)N1C[C@H](C)[C@@H](CN(C)Cc2ccc3c(c2)OCO3)Oc2c(NS(=O)(=O)c3cn(C)cn3)cccc2C1=O,x,2.9,-2,x,-12,-9,x
CCn1cc(C(=O)NCc2cccs2)c(=O)c2ccc(C)nc21,6,0.7,x,2.5,0.0,-4,-2%
O=C(c1ccsc1)N1CCN(C(=O)c2cccs2)CC1,-19,-1.8,-3,3.7,2.7,10,-2%
Cc1ccc(S(=O)(=O)N(Cc2ccccc2)c2ccccc2C(=O)N2CCCCC2)cc1,7,-2.7,x,7.8,-0.9,-4,3%
CCc1ccccc1NC(=O)NC1CC2CCC(C1)N2Cc1cccs1 (centres undefined),-11,3.8,1,4.4,-3.5,-3,6%
O=C(NCc1ccc(Cl)cc1)C(=O)NCC1CCCN1S(=O)(=O)c1cccs1 (centres undefined),-1,1.0,-1,-0.3,2.0,4,-4%
Cc1ccc(NC(=O)N/C=C/c2ccco2)cc1C,24,6.8,87*,-3.5,-2.0,0,u
C[C@@H]1CC=C[C@H]2[C@H]1C(=O)N(Cc1ccccc1)[C@H]2c1ccc(F)c(-c2ccc(N(C)C)cc2)c1,4,-3.0,x,-2.6,-0.6,20,x
CCOC(=O)/C(=N/Nc1ccc(Cl)cc1)S(=O)(=O)c1ccc(Cl)cc1,-10,-3.4,39,-1.4,2.9,-11,6%
CCN=c1sc(C(=O)Nc2ccccc2)c(C)n1CC,-12,-2.7,-3,-1.3,8.3,-10,-12%
CC1(c2ccccc2)CC(C)(C)N2C(=O)C3(C(C#N)=C(N)Oc4cc(O)ccc43)c3cccc1c32 (centres undefined),12,-0.3,1,-0.4,-1.9,10,-1%
COc1ccc(S(=O)(=O)N2CCN(C(=O)c3sccc3-c3ccccc3)CC2)cc1,3,-1.5,-2,-5.1,0.8,2,-2%
CCC(=O)N(Cc1c(C)nn(-c2ccccc2)c1Cl)c1ccc(Cl)cc1,22,-3.0,1,3.5,-4.9,6,-1%
COc1ccc(C(=O)CC(c2ccccc2)C2CCCCC2=O)cc1 (centres undefined),2,2.4,1,-3.8,3.5,1,1%
CCN(CC)CCNC(=O)c1ccc(NC(=O)c2cccc(S(=O)(=O)Nc3ccc(C)cc3)c2)cc1,-28,-0.7,-2,1.6,2.0,-1,25%
COc1cccc(N(C(=O)c2snc(C(N)=O)c2N)C(C(=O)NCC2CCCO2)c2ccc(C)o2)c1 (centres undefined),-7,0.1,-2,0.6,2.5,4,12%
O=C(c1ccc(Cl)cc1)[C@@H]1[C@@H]2C(=O)N(c3ccccc3)C(=O)[C@@H]2C2c3ccccc3C=NN21 (some centres undefined),-2,0.2,-6,-6.8,-1.0,-13,5%
# The listing continues.
SMILES,Calb FLC,HNF4A DNA FP,ALR inh,RanGTP-Imp inh,LANA-H2B inh,B2AR ag,Vif TR-FRET
CCOc1ccc(-c2c(=O)n(OCc3ccc([N+](=O)[O-])cc3)c3ccccc3[n+]2[O-])c(OCC)c1,-12,-0.9,-5,0.7,-9.5,-13,x
Cn1c(SCc2cc([N+](=O)[O-])cc3c2OCOC3)nnc1-c1ccccn1,-10,1.8,-10,-0.2,-2.0,-8,-3%
COc1ccc(-n2ccsc2=S)cc1,9,-1.8,-5,1.8,4.2,0,0%
CCN(CC)c1ccc(NC(=O)c2cccnc2)cc1,14,5.7,99*,2.1,3.8,3,u
COc1cc([N+](=O)[O-])ccc1NC(=O)CN1CCN(C(=O)c2ccco2)CC1,-20,-0.7,38,-2.6,-7.8,2,u
COc1ccc(N/C(=N/c2nc(C)cc(C)n2)NC(=O)Nc2ccc(Cl)c(Cl)c2)c(OC)c1,-2,6.8,-1,1.6,-0.6,-6,x
CCOC(=O)Cc1csc(NC(=O)CN2CCCCC2)n1,3,6.3,-2,4.9,0.0,3,x
Cc1cc2cc(CN(CCCO)S(=O)(=O)c3cccc4nsnc34)c(=O)[nH]c2cc1C,0,3.3,-4,-1.5,-11,7,-16%&-64%
COCc1ccc(CN2CCC(CO)(CC3CCCCO3)CC2)o1 (centres undefined),-14,-0.2,-3,1.1,-2.4,-6,x
CC1CCCN(C(=O)c2ccncc2)C1 (centres undefined),0,-0.9,0,-1.8,-0.6,-2,2%
C=CCc1ccc(OCC(O)COc2ccc(CC=C)cc2OC)c(OC)c1,-12,-0.9,-21,-0.2,-0.1,3,5%
O=S(=O)(Nc1nc(-c2ccccc2)cs1)c1cc(Cl)ccc1Cl,96*,-1.7,90*,5.0,-0.2,6,x
CSc1nc(N)n(-c2cc(C(F)(F)F)ccn2)n1,-1,0.2,-33,-2.1,0.0,-3,-1%
c1ccc(Cn2nnnc2C(c2ccncc2)N2CCOCC2)cc1 (centres undefined),-3,0.9,-4,2.2,-3.6,6,u
O=c1[nH]c(C2CCCN(S(=O)(=O)c3ccccc3F)C2)nc2c1nnn2Cc1ccccc1Cl (centres undefined),24,-0.3,-5,0.6,2.7,0,x
Cc1ccc(SCc2cc(=O)[nH]c(N3CCN(Cc4ccccc4)CC3)n2)cc1,-6,-1.9,-5,-1.9,-2.8,2,15%
COCCn1c(CN2CCC(Cc3ccccc3)CC2)nc2c1c(=O)n(C)c(=O)n2C,x,-0.4,-3,x,9.2,0,-9%&-5%
COc1ccc(-n2nc3c(=O)[nH][nH]c3cc2=O)cc1,-30,-6.0,8,3.4,0.7,2,x
O=C(NNC(=O)c1ccc2c(=O)n3c(nc2c1)CCC3)c1ccc(Cl)cc1,x,-0.2,12,x,-6.4,-3,1%
O=C(c1ccc(S(=O)(=O)N2CCC(c3nc4ccccc4s3)CC2)cc1)N1CCCCC1,x,1.6,x,x,x,5,-3%
O=P(c1ccccc1)(c1ccccc1)C(O)c1ccccn1 (centres undefined),-4,2.1,-2,-2.1,-7.7,-6,11%
CCCC(C)c1nnc(NC(=O)COc2ccc3c(c2)OCO3)s1 (centres undefined),5,0.1,53,6.1,-2.0,1,x
Cc1nn(-c2ccccc2)c(C)c1NC(=O)COc1ccc(Br)cc1Cl,3,1.6,-53,2.8,-6.1,-1,x
Cc1cccc(OC(C)C(=O)NC2CCS(=O)(=O)C2)c1C (centres undefined),8,0.4,0,3.2,-1.0,1,x
CCN(Cc1ccccc1)C(=O)c1c(-c2ccccc2Cl)noc1C,2,-0.3,1,-0.4,-1.2,7,x

# Compound profiles, from the list above. Order of screens: Calb FLC | HNF4A DNA FP | ALR inh | RanGTP-Imp inh | LANA-H2B inh | B2AR ag | Vif TR-FRET
# COc1ccc(-n2ccsc2=S)cc1 across the screens: 9 | -1.8 | -5 | 1.8 | 4.2 | 0 | 0%
# COCCn1c(CN2CCC(Cc3ccccc3)CC2)nc2c1c(=O)n(C)c(=O)n2C across the screens: x | -0.4 | -3 | x | 9.2 | 0 | -9%&-5%

# Next section:
SMILES,Calb FLC,HNF4A DNA FP,ALR inh,RanGTP-Imp inh,LANA-H2B inh,B2AR ag,Vif TR-FRET
O=C(O)c1ccccc1NC(=O)C1CCN(S(=O)(=O)c2cccc3nsnc23)CC1,-4,0.5,-19,1.9,0.8,4,x
CCOc1ccccc1Nc1ccc2nonc2c1[N+](=O)[O-],16,1.6,-1,2.1,-0.6,-4,-1%
COc1ccc(C2=Nn3c(nnc3-c3ccccc3OC)SC2)cc1OC,20,5.4,x,6.3,2.1,18,1%
COc1cc(/C=N/NC(=O)CNC(=O)/C=C/c2ccco2)cc(OC)c1OC,5,-0.7,4,2.6,-0.4,6,x
CCOC(=O)c1c(NC(=O)C(C)N2CCN(C(=O)c3ccco3)CC2)sc2c1CCCC2 (centres undefined),19,-1.0,-1,-2.4,-4.3,27,>100µM*
COc1cccc(C(=O)NC(=S)Nc2cccnc2)c1,-5,2.9,14,-3.6,2.1,3,-3%
CC(=O)Oc1ccccc1-n1c(C)nc(=O)c(-c2ccccc2)c1C,-11,2.4,12,-0.4,-3.8,1,1%
Cc1ccsc1/C=N/n1c(-c2cccnc2)n[nH]c1=S,48,3.7,18,-3.5,4.3,2,-4%
Cc1ccc(C(=O)N(CCN2CCCCC2)CC2CCCN(C3CCCC3)C2)s1 (centres undefined),1,1.4,x,1.6,x,4,x
O=c1c2nncn2c2cc(C(F)(F)F)ccc2n1CCNc1ncc(C(F)(F)F)cc1Cl,-7,4.3,-7,-0.1,-1.4,-4,3%

# Structures above that contain a thiophene ring, fused or not (9):
SMILES,Calb FLC,HNF4A DNA FP,ALR inh,RanGTP-Imp inh,LANA-H2B inh,B2AR ag,Vif TR-FRET
CCN1CCN(CC(=O)Nc2sc3c(c2C#N)CCC3)CC1,-1,0.8,16,-1.3,-2.7,-15,22%
CCn1cc(C(=O)NCc2cccs2)c(=O)c2ccc(C)nc21,6,0.7,x,2.5,0.0,-4,-2%
O=C(c1ccsc1)N1CCN(C(=O)c2cccs2)CC1,-19,-1.8,-3,3.7,2.7,10,-2%
CCc1ccccc1NC(=O)NC1CC2CCC(C1)N2Cc1cccs1 (centres undefined),-11,3.8,1,4.4,-3.5,-3,6%
O=C(NCc1ccc(Cl)cc1)C(=O)NCC1CCCN1S(=O)(=O)c1cccs1 (centres undefined),-1,1.0,-1,-0.3,2.0,4,-4%
COc1ccc(S(=O)(=O)N2CCN(C(=O)c3sccc3-c3ccccc3)CC2)cc1,3,-1.5,-2,-5.1,0.8,2,-2%
CCOC(=O)c1c(NC(=O)C(C)N2CCN(C(=O)c3ccco3)CC2)sc2c1CCCC2 (centres undefined),19,-1.0,-1,-2.4,-4.3,27,>100µM*
Cc1ccsc1/C=N/n1c(-c2cccnc2)n[nH]c1=S,48,3.7,18,-3.5,4.3,2,-4%
Cc1ccc(C(=O)N(CCN2CCCCC2)CC2CCCN(C3CCCC3)C2)s1 (centres undefined),1,1.4,x,1.6,x,4,x
